Pol kappa inh: qHTS for Inhibitors of Polymerase Kappa; DNA polymerase kappa (Homo sapiens), Q9UBT6; purified Pol kappa, fluorescent DNA synthesis assay, 10 min; Potency, µM (titrated, usually from 107 µM), without a hit: at the highest dose activity, negative = inhibition, usual class: inhibitors; 400,000 tested, 0.53% active; AID 588579, 2011; further: on the % scale 0 is the no-effect control and ±100 the full control effect
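Pol kappa 10 nM + cpd, 15 min RT; start w/ substrate 50 nM final; fluorescence kinetic read, 0 and 10 min. Neg ctrl: buffer, no enzyme.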
POLB inh: qHTS Assay for Inhibitors of DNA Polymerase Beta | P06746 | Pol beta primer extension/strand displacement, fluorescence kinetic | Potency, µM (titrated, usually from 114 µM), without a hit: at the highest dose activity change, negative = inhibition, hits mostly inhibitors | 340,000 tested, 1.3% active | AID 485314, 2010; further: on the % scale 0 is the no-effect control and ±100 the full control effect
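Reaction started by 50 nM substrate onto compound-treated Pol beta (10 nM, 15 min preincubation, room temperature); plates read at 0 min and 10 min. Normalized concentration-effect data fitted by four-parameter Hill equation.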
APEX1 inh: qHTS Assay for Inhibitors of the Human Apurinic/apyrimidinic Endonuclease 1 (APE1) | DNA repair nuclease/redox regulator APEX1 (Homo sapiens), P27695 | recombinant APE1, TAMRA/BHQ-2 abasic DNA cleavage fluorescence | Potency, µM (highest dose often 65.8 µM), without a hit: at the highest dose activity change, negative = inhibition, hits mostly inhibitors | 350,000 tested, 0.35% active;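 further: plate controls were vehicle for no effect and reference inhibitor for full effect; nearly all actives have a fitted effect of over 55% in size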
Target sequence (P27695 whole entry, looked up): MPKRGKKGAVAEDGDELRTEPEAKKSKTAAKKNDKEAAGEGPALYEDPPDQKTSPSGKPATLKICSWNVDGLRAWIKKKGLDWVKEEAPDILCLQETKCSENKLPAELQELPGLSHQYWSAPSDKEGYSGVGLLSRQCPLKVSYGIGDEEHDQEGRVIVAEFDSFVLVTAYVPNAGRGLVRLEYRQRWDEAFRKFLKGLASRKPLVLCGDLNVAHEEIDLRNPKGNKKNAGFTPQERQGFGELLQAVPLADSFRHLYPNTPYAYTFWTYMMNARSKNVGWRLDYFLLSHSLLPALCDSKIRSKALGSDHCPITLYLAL
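Enzyme (0.75 nM final) and test compound are incubated 15 min at room temperature before adding 50 nM quenched THF abasic-site duplex. Cleavage dequenches TAMRA, followed at 525/598 nm over three reads one minute apart.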
POLH inh: qHTS for Inhibitors of Polymerase Eta. recombinant Pol eta, fluorescent DNA replication assay. DNA polymerase eta (Homo sapiens), Q9Y253. Potency, µM (highest dose often 114 µM), for inactives: at the top dose activity change, negative = inhibition, hits mostly inhibitors. 390,000 tested, 1.2% active; further: on the % scale 0 is the no-effect control and ±100 the full control effect
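Fluorescent replication assay: 50 nM final substrate added after a 15 min room-temperature compound preincubation with 10 nM enzyme. Signal taken at 0 min and again at 10 min.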
BLM inh: qHTS Assay for Inhibitors of Bloom's syndrome helicase (BLM) | RecQ-like DNA helicase BLM (Homo sapiens), P54132 | recombinant BLM DNA unwinding, fluorescence dequenching | Potency, µM (doses to about 56.1 µM), for inactives: at the top dose activity change, negative = inhibition, hits mostly inhibitors | 350,000 tested, 0.2% active;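 further: plate controls were vehicle for no effect and no enzyme for full effect; nearly all actives have a fitted effect of over 35% in size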
G9a block: qHTS Assay for Inhibitors of Histone Lysine Methyltransferase G9a; Histone-lysine N-methyltransferase EHMT2 (Homo sapiens), Q96KQ7; G9a H3K9 monomethylation, AlphaScreen, 2 h; Potency, µM (top dose mostly 102 µM), for the others: at the highest dose activity, negative = inhibition, usual class: inhibitors; 350,000 tested, 8.8% active; AID 504332, 2011; further: on the % scale 0 is the no-effect control and ±100 the full control effect; nearly all actives have a fitted effect of over 75% in size
Target sequence (Q96KQ7 913-1193 limits assumed): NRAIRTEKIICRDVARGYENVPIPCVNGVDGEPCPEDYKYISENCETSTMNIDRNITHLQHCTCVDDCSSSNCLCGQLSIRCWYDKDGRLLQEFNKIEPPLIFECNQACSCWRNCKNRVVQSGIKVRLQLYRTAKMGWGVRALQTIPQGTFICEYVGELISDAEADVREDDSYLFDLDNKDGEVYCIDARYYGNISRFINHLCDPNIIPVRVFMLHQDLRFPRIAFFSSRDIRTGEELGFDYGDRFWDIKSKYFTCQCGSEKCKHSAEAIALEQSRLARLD
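Step 1: enzyme (final 20 nM) with compound, 15 min RT. Step 2: substrate peptide 500 nM and SAM 20 uM, 2 h RT. Step 3: anti-H3K9me1 antibody and AlphaScreen beads, 10 min, then plate read.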
Pol iota inh: qHTS for Inhibitors of Polymerase Iota. DNA polymerase iota (Homo sapiens), Q9UNA4. Potency, µM (doses to about 115 µM), inactives show at the top dose activity, negative = inhibition, hits mostly inhibitors. Pol iota fluorescent replication assay, 10 min. 390,000 tested, 1% active
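Fluorescent replication assay read twice, at 0 min and 10 min after adding 50 nM (final) substrate. Enzyme (10 nM) and compounds were first incubated 15 min at room temperature; enzyme-free buffer wells were negative controls.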
Apoferritin bind: qHTS Assay for Identification of Novel General Anesthetics; Ferritin light chain (Equus caballus), P02791; apoferritin/1-aminoanthracene competitive binding, fluorescence; Potency, µM (highest dose often 77.5 µM), for the others: at the top dose activity change, negative = displacement, usual class: inhibitors; 350,000 tested, 0.074% active; AID 485281, 2010; further: on the % scale 0 is the no-effect control and ±100 the full control effect; nearly all actives have a fitted effect of over 20% in size
Target sequence (P02791 2-175 limits assumed): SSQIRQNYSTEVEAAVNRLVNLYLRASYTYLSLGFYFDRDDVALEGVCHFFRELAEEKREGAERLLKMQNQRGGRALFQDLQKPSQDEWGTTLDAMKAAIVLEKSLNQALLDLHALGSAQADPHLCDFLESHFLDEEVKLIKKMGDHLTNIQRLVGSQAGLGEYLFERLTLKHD
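Concentration-response curves derived by four-parameter Hill fitting of normalized fluorescence, where compounds displaced 1-AMA from 10 uM horse apoferritin following a brief 10 min room-temperature incubation; propofol titration acted as positive control.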
* marks the source's active call; other numbers are inactive results; ? = inconclusive; . = not tested or not shown; & = joins results of further samples; ! = not active in a repeat; [ ] = remark or other dose. The call rests on the fitted dose curve; in most records, active means well fitted curve in the direction sought with a large enough effect; inconclusive means small, poorly fitted or top-dose-only effect, or another doubt; inactive means no such curve, though single readings can be large; an effect the other way counts as inactive or inconclusive. Potency means the concentration at half of the fitted maximal effect. Some of the compounds tested, so the mix of outcomes need not match the whole.

[1] N#C/C(=C\c1ccc(Cl)s1)C(=O)N1CCN(c2ccccc2)CC1
[2] O=C(CN1C(=O)S/C(=C\c2ccccc2Cl)C1=O)NCCCn1ccnc1
[3] CCn1c(SCC(=O)Nc2sc3c(c2C(N)=O)CCC(C)C3)nnc1-c1ccco1 (stereo unspecified)
[4] CCOC(=O)C1CCN(c2cc3c(cc2NC(=O)c2cc(OC)ccc2Br)n(C)c(=O)n3C)CC1
[5] O=C(Nc1ccccc1F)Nc1cccc2ccc(O)cc12
[6] C#Cc1cccc(NC(=O)CSc2nnc(-c3ccc(C(F)(F)F)cn3)o2)c1
[7] COc1cccc(C2=NOC(C(=O)NCc3ccc(F)cc3)C2)c1 (stereo unspecified)
[8] Cc1ccc(Nc2nc(N)nc(CN3CCN(C)CC3)n2)cc1
Compound	1	2	3	4	5	6	7	8
G9a block	10%[59 µM]	.	35µM*	40µM*	50µM*	23%	28%	-7%[12.7 µM]
Pol iota inh	?	-8%	22µM*	26%	-17%	3%	11%	22%
BLM inh	-7%	-1%	-1%	-15%	-24%	-7%	0%	4%
Apoferritin bind	-4%	-12%	?	31%[activator]	-2%	-4%	1%	-1%
POLB inh	3%	34%	56µM*	38%	-10%	19%	0%	13%
Pol kappa inh	-8%	1%	?	10%	-4%	-18%	-11%	-8%
POLH inh	-23%	-1%	?	-16%	-1%	1%	-10%	1%
APEX1 inh	15%	4%	?	70%[activator]	?	-3%	-3%	?

[9] Cc1ccc(Cn2ccnc2SCC(=O)Nc2ccccc2C(F)(F)F)cc1
[10] CC1(C)CC(=O)c2cc(C(=O)Nn3cnnc3)c(=O)n(-c3ccccc3)c2C1
[11] O=C(CSc1ncc(-c2ccccc2)n1-c1ccccc1)NCc1ccco1
[12] N#Cc1nc(Cc2cccc3ccccc23)oc1N1CCCCC1
[13] CO/N=C/c1ccc(N2CCN(C(=O)c3ccc(C)cc3)CC2)c([N+](=O)[O-])c1
[14] Cn1c(-c2ccc(F)cc2)cnc1NCc1ccc(C#N)cc1
[15] CCOc1ccc(NC(=O)N2CC3CCCN3c3ccccc32)cc1 (stereo unspecified)
[16] COC(=O)c1cccc(-c2ccc(/C=N/N3C(=O)C4C5C=CC(C6CC56)C4C3=O)o2)c1 (stereo unspecified)
Compound	9	10	11	12	13	14	15	16
G9a block	?	-43%[12.7 µM]	13µM*	16µM*	?	14µM*	?	.
Pol iota inh	7%	8%	24%	-14%	-2%	6%	-11%	13%
BLM inh	-3%	-2%	-5%	2%	-6%	-2%	-6%	-6%
Apoferritin bind	?	-1%	2%	133%[activator]	?	-16%	-11%	?
POLB inh	-7%	-21%	-26%	4%	6%	?	-23%	27%
Pol kappa inh	-4%[60.1 µM]	-6%	-13%	-5%	-7%	-10%	-21%	-7%
POLH inh	?	-9%	-10%	-10%	-15%	-6%	-16%	-5%
APEX1 inh	.	-5%	-1%	-3%	8%	1%	.	3%

[17] CCc1cccc(N=c2c([N+](=O)[O-])nn(-c3ccc(Cl)cc3)n2O)c1
[18] Cc1cccc(NC(=O)C(=O)NCc2ccc3c(c2)OCO3)c1C
[19] Cc1cccc(NC(=O)CSc2ccc(-c3ccccn3)nn2)c1
[20] CCC(c1nnnn1C1CCCC1)N1CCN(c2cccc(OC)c2)CC1 (stereo unspecified)
[21] COc1ccc(-n2c(SCC(=O)OC(C)C)nnc2-c2ccccn2)cc1
[22] O=S(=O)(c1cccc(C(F)(F)F)c1)N(CCCN1CCOCC1)Cc1cccs1
[23] CC(C)=Cc1oc2ccc([N+](=O)[O-])cc2c1N1CCOCC1
[24] CCn1nccc1C(=O)Nc1nc2ccccc2n1CCN1CCCCC1
Compound	17	18	19	20	21	22	23	24
G9a block	10%[2.33 µM]	14%	-5%[59 µM]	-5%[12.7 µM]	-4%	4.5µM*!	?	3%
Pol iota inh	-12%[58.9 µM]	96%[activator]	-22%	?	34%[activator]	46%[activator]	55%[activator]	8%
BLM inh	-3%	-2%	15%	-2%	-1%	-3%&2%	-9%	-3%
Apoferritin bind	?	?	?	-9%	-16%	-17%&-3%	-18%	-15%
POLB inh	-21%	1%	-22%	11%	5%	2%&1%	?	30%
Pol kappa inh	-5%	-15%	-13%	-8%	-19%	-8%&0%	-3%	0%
POLH inh	-7%	-15%	8%	-14%	-11%	-7%&-16%	-21%	-7%
APEX1 inh	-3%	-3%	.	14%	0%	3%&6%	3%	0%

Shown tab-delimited: part of the list above
No.	structure	G9a block	Pol iota inh	BLM inh	Apoferritin bind	POLB inh	Pol kappa inh	POLH inh	APEX1 inh
1	N#C/C(=C\c1ccc(Cl)s1)C(=O)N1CCN(c2ccccc2)CC1	10%[59 µM]	?	-7%	-4%	3%	-8%	-23%	15%
2	O=C(CN1C(=O)S/C(=C\c2ccccc2Cl)C1=O)NCCCn1ccnc1	.	-8%	-1%	-12%	34%	1%	-1%	4%
3	CCn1c(SCC(=O)Nc2sc3c(c2C(N)=O)CCC(C)C3)nnc1-c1ccco1 (stereo unspecified)	35µM*	22µM*	-1%	?	56µM*	?	?	?
4	CCOC(=O)C1CCN(c2cc3c(cc2NC(=O)c2cc(OC)ccc2Br)n(C)c(=O)n3C)CC1	40µM*	26%	-15%	31%[activator]	38%	10%	-16%	70%[activator]
5	O=C(Nc1ccccc1F)Nc1cccc2ccc(O)cc12	50µM*	-17%	-24%	-2%	-10%	-4%	-1%	?
6	C#Cc1cccc(NC(=O)CSc2nnc(-c3ccc(C(F)(F)F)cn3)o2)c1	23%	3%	-7%	-4%	19%	-18%	1%	-3%
7	COc1cccc(C2=NOC(C(=O)NCc3ccc(F)cc3)C2)c1 (stereo unspecified)	28%	11%	0%	1%	0%	-11%	-10%	-3%
8	Cc1ccc(Nc2nc(N)nc(CN3CCN(C)CC3)n2)cc1	-7%[12.7 µM]	22%	4%	-1%	13%	-8%	1%	?

(cont.)
[25] COc1ccc(C)c2sc(N(CCN(C)C)C(=O)c3cccc(N4C(=O)CCC4=O)c3)nc12
[26] Cc1ccc(C)c(NC2CCCCC2NS(=O)(=O)c2ccccc2)c1 (stereo unspecified)
[27] Cc1cc(O)c(C(=O)c2cnc3c(c2)COc2ccccc2-3)cc1Cl
[28] Cc1ccccc1Cn1c(=O)n(Cc2ccco2)c(=O)c2ccccc21
[29] O=C(O)c1ccc2c(=O)n3c(nc2c1)/C(=C/c1ccc(F)cc1)CC3
[30] Cc1cccc(S(=O)(=O)NCCC(=O)OC(C)C(=O)NC(=O)NC2CCCCC2)c1 (stereo unspecified)
Compound	25	26	27	28	29	30
G9a block	21%[2.33 µM]	.	?	-6%[59 µM]	3%[2.33 µM]	0%[59 µM]
Pol iota inh	27%	?	?	3%	3%	5%
BLM inh	.	-13%	-9%	-2%	1%	-2%
Apoferritin bind	.	4%	9%	-16%	5%	?
POLB inh	.	6%	-2%	?	3%	10%
Pol kappa inh	-17%	-13%	-42%	-12%	10%	-15%
POLH inh	-24%	-10%	-21%	3%	-4%	-14%
APEX1 inh	11%	-25%	.	22%	-6%	-3%
